ALR H2O2 inh – inhibitors of human sulfhydryl oxidase ALR. P55789. purified ALR, DTT oxidation, H2O2 HRP-luminol luminescence. inhibition, % (concentration not given with the values). hit rate 3.8% among 290,000. AID 485317;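 active means mean and each replicate at 75% or more; inconclusive means only one of the two met; inactive means neither met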;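 further: stock transfer was 7.5 nL into about 7.5 µL; 0% = neutral wells and 100% = wells with inactivated enzyme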
Target sequence (P55789 whole entry, looked up): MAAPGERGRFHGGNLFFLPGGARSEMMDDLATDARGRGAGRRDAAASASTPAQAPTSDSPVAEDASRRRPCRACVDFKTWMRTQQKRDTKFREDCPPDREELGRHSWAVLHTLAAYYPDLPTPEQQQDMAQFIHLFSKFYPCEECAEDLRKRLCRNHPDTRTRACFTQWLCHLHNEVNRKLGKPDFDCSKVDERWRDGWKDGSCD
T cruzi inh – T. cruzi replication inhibition | inhibition, % (concentration not given with the values) | T. cruzi beta-gal in NIH3T3, luminescence, 90 h | AID 1885 | hit rate 1.4% among 300,000;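 active means mean inhibition across valid replicates above about 55%, limit read from the data; inconclusive means mean below that limit but half or more replicates reach it; inactive means mean below it, under half of replicates reach it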;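 further: signal also drops with host cell toxicity which is not excluded here; 0% = plate median of DMSO wells and 100% = zero luminescence signal; higher percent means less beta-gal luminescence so fewer parasites; stock transfer was 50 nL into about 50 µL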
RanGTP-Impb inh – inhibitors of RanGTP-importin-beta interaction, primary screen, biochemical, FRET, CFP-Ran, YFP-importin-beta, homogeneous. hit rate 1.1% among 300,000. cell-free CFP-Ran/YFP-importin-beta FRET ratio. inhibition, % (concentration not given with the values);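 active means most replicates above 15%; inconclusive means exactly half above 15%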;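 further: 0% = DMSO wells and 100% = Ran loaded with GDP instead of GTP; wells of about 40 µL received 100 nL stock; the first replicate is given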
Beta cell apopt – beta cell apoptosis inhibition | INS-1E cytokine-induced death, ATP luminescence, 48 h; percent of positive-control rescue, neutral wells zero | protection from apoptosis, % (no concentration beside the values) | hit rate 0.8% among 300,000;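 active means all replicates at 75% or more, or half of them and the mean; inconclusive means half reach 75% but not the mean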;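 further: 0% = cytokine-treated negative control wells and 100% = positive control rescue; higher means more ATP so stronger rescue from cytokine killing; wells of about 40 µL received 100 nL stock; the first replicate is given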
Calb FLC – affects C. albicans growth with fluconazole; C. albicans CaCi-2 (fluconazole-resistant clinical isolate) + fluconazole, Alamar Blue growth, 48 h; growth inhibition, % (concentration not given with the values); hit rate 0.57% among 300,000; AID 1979;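 active means most replicates above 75%; inconclusive means exactly half above 75%; inactive means most below 75%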;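 further: all wells also contain fluconazole at 8 µg/ml as a sub-toxic cotreatment; 0% = median of DMSO wells and 100% = median of geldanamycin control wells; wells of about 8 µL received 7.5 nL stock; the first replicate is given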
rRNA inh HTS – inhibitors of bacterial rRNA selective over humanized ribosomes. E. coli WT GFP vs humanized-ribosome RFP mutants, fluorescence, 24 h; stronger effect = lower value; DMSO median 0, no signal -100. GFP signal change (wild-type ribosome), % (no concentration beside the values). hit rate 1.6% among 350,000. AID 720706;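 active means significant combined selectivity score with lowered wild-type GFP, culture density cut under 30%, mutant RFP and density less affected; inactive means any of these conditions unmet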; further: one replicate is shown; some compounds called inactive have numbers as strong as hits
AF4-AF9 inh – MLL-AF4/AF9 protein interaction inhibition | P42568 | AlphaScreen, biotin-AF4 peptide binding to FLAG-AF9 | inhibition, % at 10 µM | hit rate 0.47% among 350,000 | AID 651704;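 active means every replicate reaching a set inhibition limit, whatever the replicate mean, cut at about 25% in these data; inconclusive means mean inhibition reaches that limit but some replicates miss it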;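 further: 0% = plate neutral control median and 100% = total signal loss; the record names both 10 and 1 µM as test concentration; the first replicate is given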
Target sequence (P42568 whole entry, looked up): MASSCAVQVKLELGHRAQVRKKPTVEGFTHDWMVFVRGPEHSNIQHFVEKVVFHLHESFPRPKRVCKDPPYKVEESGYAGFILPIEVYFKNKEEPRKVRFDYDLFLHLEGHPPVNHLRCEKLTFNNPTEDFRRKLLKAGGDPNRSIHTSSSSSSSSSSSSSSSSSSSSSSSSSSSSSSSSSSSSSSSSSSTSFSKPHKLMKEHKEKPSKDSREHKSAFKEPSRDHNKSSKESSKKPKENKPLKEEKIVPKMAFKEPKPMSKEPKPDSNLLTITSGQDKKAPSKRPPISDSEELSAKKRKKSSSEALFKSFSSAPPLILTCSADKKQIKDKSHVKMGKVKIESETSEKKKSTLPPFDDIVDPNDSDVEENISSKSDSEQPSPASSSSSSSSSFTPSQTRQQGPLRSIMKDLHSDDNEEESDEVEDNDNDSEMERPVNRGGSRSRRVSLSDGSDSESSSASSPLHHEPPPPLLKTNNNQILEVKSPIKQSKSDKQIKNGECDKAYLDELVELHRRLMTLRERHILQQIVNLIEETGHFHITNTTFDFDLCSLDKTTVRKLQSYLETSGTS
FGF22 binding – binders of recombinant human FGF22 by thermal shift | AID 651658 | Q9HCT0 | hit rate 1.5% among 340,000 | SYPRO orange fluorescence; percent of sucrose octasulfate shift, DMSO zero | calls only at 9.99 µM;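 active means melting point raised past a set limit in the mean and every replicate; inconclusive means no clear call; three in four hits are not shown here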
Target sequence (Q9HCT0 whole entry, looked up): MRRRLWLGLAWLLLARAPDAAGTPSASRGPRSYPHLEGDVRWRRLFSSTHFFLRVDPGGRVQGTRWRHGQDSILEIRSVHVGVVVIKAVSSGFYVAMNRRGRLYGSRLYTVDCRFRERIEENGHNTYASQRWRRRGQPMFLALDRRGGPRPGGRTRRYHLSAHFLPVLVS
rRNA inh HTS OD600 – recorded beside rRNA inh HTS, whose call it bears; OD600 change, %; measured here: OD600 growth;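 optical density of the mix in the first replicate; 0 = DMSO median and -100 = no signal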
rRNA inh HTS RFP – recorded beside rRNA inh HTS, whose call it bears; RFP signal change, %; measured here: RFP humanized mutant strains;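 first replicate; 0 = DMSO median and -100 = no signal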
Active calls of the source: *; i = inactive; ? = inconclusive; . = not tested or not shown.

Order of values – Calb FLC, ALR H2O2 inh, AF4-AF9 inh, rRNA inh HTS, RanGTP-Impb inh, FGF22 binding, rRNA inh HTS OD600, T cruzi inh, rRNA inh HTS RFP, Beta cell apopt
CCNC(=O)C1CC(=O)N(CCCc2ccccc2)C(=Nc2ccccc2)S1 (centres undefined)
  0, 0, 1.5, 8, -4.2, i, 12, 29, -0.1, -7
Cc1ccc(OCC(=O)NNC(=O)c2ccc(-n3cncn3)c([N+](=O)[O-])c2)cc1
  ., -12, -4.5, 3, -2.7, i, 11, -1, 0.4, 5
COc1ccc(C(=NN)c2ccc(OC)cc2)cc1
  19, 1, 2.1, -3, -0.5, i, -3, -18, -3.8, -4
C/C(=N\S(=O)(=O)c1ccc(C)cc1)NC(=S)Nc1ccc(C)cc1
  -12, 1, -1.1, 14, -0.9, i, 2, -6, -0.6, -11
CCOP1(=O)OCC2OC(n3cnc4c(N)ncnc43)C(O)C2O1 (centres undefined)
  3, ., 0.1, 9, 0.9, i, 11, -22, 1.6, .
O=C(NN1C(=O)C2C(C1=O)C1C=CC2C12CC2)c1ccc(Cl)cc1 (centres undefined)
  26, -12, 1.9, -1, 1.1, i, -2, -1, -0.6, -2
CC(C)Sc1ncc(S(=O)(=O)c2ccccc2)c(=O)[nH]1
  -7, 10, -0.8, 15, ?, i, 13, -6, 0.5, -11
CC(=O)Nc1ccc(-c2nc3cc(Cl)ccc3o2)cc1
  -6, 12, -2.8, 6, -1.0, i, 1, 2, -3.9, 5
O=C(C1CC(=O)N(c2ccccc2F)C1)N1CCOCC1 (centres undefined)
  ., 9, -0.2, 6, ., i, 23, ., -1.9, -7
CCc1cc(C(=O)c2ccc(OC)cc2)c(NC(=O)CN2CCN(C)CC2)s1
  -14, ., 4.3, ., -1.8, i, ., 35, ., 4
CCOc1ccc(CN(C)CC(=O)NCc2ccccc2Cl)cc1
  -14, -6, -3.1, -28*, 1.0, i, -23*, 11, 0.0*, -2
COC(=O)CSc1nnc(CNS(=O)(=O)c2ccc(C)cc2)n1C
  -13, -1, ., ., ?, ., ., -9, ., -14
COc1ccc(-c2nnc(SCC(=O)N3CCCCC3)o2)cc1OC
  1, -9, -2.5, 2, 2.0, ., 1, 1, -0.5, -5
CC(=O)c1cccc(CN2CCC(CO)(Cc3ccccc3)CC2)c1
  2, -2, -0.7, 9, 6.2, i, 10, 11, -0.1, -4
COCCNc1nc(-c2cc(-c3ccc(Cl)cc3)on2)cc(C(C)C)n1
  -5, 3, ., 2, 2.3, i, 3, 23, -1.8, 2
Cc1ccccc1NC(=O)C1CCCN(S(=O)(=O)c2c(C)noc2C)C1 (centres undefined)
  -3, -4, ., ., -1.3, ., ., 1, ., -1
NC(=O)COC(=O)c1ccccc1OCc1ccc(Cl)cc1
  8, -23, -4.2, 3, 3.2, i, 5, 6, -1.0, -3
CCOc1ccc(CC(=O)N/N=C/c2sccc2C)cc1
  -18, -8, 1.7, 4, -1.8, i, 0, -22, 2.1, 3
COc1ccc(C2CC(=O)OC3=C2C(=O)CC(C)(C)C3)c(OC)c1 (centres undefined)
  -3, -18, 0.4, 6, 0.7, i, 9, -14, -1.4, -2
Cn1c(CCN2CCCCC2)nc2cc(NS(=O)(=O)c3ccc(Cl)cc3)ccc21
  -9, ., ., ., 7.9, ., ., 6, ., -4
c1ccc(-n2cnc3cc(NCc4ccccn4)ccc32)cc1
  -10, 100*, 7.8, -1, -3.1, i, 7, 30, 7.6, -4
O=C(N/N=C/c1cccc([N+](=O)[O-])c1)c1c[nH]c2ccccc12
  -1, 74, 0.9, 19, 3.5, i, 18, 16, 1.4, 15
Cc1nn(-c2ccccc2)c(N2CCCCC2)c1/C=N/NC(=O)c1ccncc1
  0, -52, 4.3, -10, -1.8, i, -10, -13, -0.6, 4
CCN(C(=O)c1cccc(F)c1)c1ccccc1C
  28, ., ., ., -0.2, ., ., -7, ., -9
CC(C)=NN1C(=O)c2ccccc2NC1(C)C
  0, -6, 1.0, -1, 3.6, i, 17, -10, -1.6, -6
Cc1cccc(OCC(=O)O/N=C(\N)c2ccc(Br)cc2)c1
  1, -9, -0.2, 11, -2.1, i, 6, -11, 0.4, -8
COC(=O)N/N=C/c1ccc(OCCSc2ccc(Cl)cc2)c(OC)c1
  41, 1, ., ., -1.4, ., ., 19, ., -1
O=C(CSc1nc2cc(Cl)ccc2s1)N1CCN(C(=O)c2ccco2)CC1
  -15, -12, ., ., -1.8, ., ., -6, ., -3
CCCOc1ccc(/C=N/NC(=S)Nc2ccccc2[N+](=O)[O-])c(O)c1
  34, -10, ., ., 2.2, ., ., 8, ., 108*
CN1CC(c2ccccc2)Oc2ccccc2C1=S (centres undefined)
  4, 0, -8.1, -36*, 1.0, i, 2.6*, -12, -5.4*, -3
CN(c1cccc(NC(=O)CSc2ccc(Cl)cc2)c1)S(C)(=O)=O
  -22, -1, ., ., 5.0, ., ., 11, ., -12
Cc1cc2c(C)nc(Cc3ccccc3)nc2o1
  -2, 2, ., ., 0.8, ., ., 6, ., -3
CNC(=O)c1cc(Nc2nnc(-c3ccc(C)c(S(N)(=O)=O)c3)c3ccccc23)ccc1OC
  ., 27, 1.4, -32, 0.6, i, -29, -15, -1.8, -2
CCS(=O)(=O)c1ccc2oc(SCC(=O)NCc3ccccc3)nc2c1
  -1, 2, 0.8, 0, 0.3, i, -3, 5, 1.2, -1
O=C(NCCCc1ccc(F)cc1)C1CCC(=O)N(CC2CCCCC2)C1 (centres undefined)
  -14, -11, -0.7, -13, 2.8, i, -15, 7, -2.6, .
O=S(=O)(c1ccc(Cl)cc1)N1CCC(O)(CN2CCN(Cc3ccccc3)CC2)CC1
  -5, 4, 4.3, -20, -2.2, ., -24, 38, 2.8, 0
Cc1nc2c(cc(Oc3ccc(S(=O)(=O)N4CCOCC4)cn3)c3ccsc32)s1
  ?, -32, ., ., -3.1, ., ., 2, ., 7
CC(Sc1ncn[nH]1)C(=O)Nc1cc(C(F)(F)F)ccc1Cl (centres undefined)
  ., -10, 0.2, ., ., i, ., ., ., -3
COc1ccc(CCNC(=O)COC(=O)COc2ccc(Cl)cc2)cc1OC
  -8, -44, 0.0, 12, -2.5, i, 8, -5, 2.9, -3
Cc1nnc(SCc2ccccc2F)n1NCc1cccs1
  4, -4, ., ., 5.8, ., ., 2, ., -1
COc1ccccc1/C=N/NC(=O)c1cccc(OC(F)(F)C(F)F)c1
  3, -40, 10, 5, 6.6, i, 2, 0, -8.1, -3
CSc1ccc(/C=N/NC(=O)CNc2ccc3ccccc3c2)cc1
  19, -18, 0.1, 10, 8.9, i, 7, 4, -0.6, 1
N#Cc1cccc(C(c2nnnn2C2CCCC2)N2CCC(Cc3ccccc3)CC2)c1 (centres undefined)
  -2, -9, ., ., 7.0, ., ., 44, ., 21
COc1cc(OC)c(OC)cc1/C=C1\Oc2cc(OS(C)(=O)=O)ccc2C1=O
  4, ., -4.2, -6, -49, i, 1, -1, -1.8, 3
COc1ccccc1NC(=O)c1ccccc1Oc1ccccc1
  4, 1, 0.0, -24, -0.2, i, -23, -7, -3.3, 1
COc1ccc(/C=C/C(=O)NC(=S)NNC(=O)[C@H]2C[C@@H]2c2ccccc2)cc1OC
  ., -4, -1.2, 0, 5.6, i, 4, -45, 0.3, 6
NC1=NC(=O)C(CC(=O)Nc2ccc3c(c2)OCO3)S1 (centres undefined)
  10, -25, 2.2, 16, -4.5, i, 9, -5, 3.1, -5
COc1ccccc1NS(=O)(=O)c1ccc(N/N=C/C=C/c2ccccc2[N+](=O)[O-])c([N+](=O)[O-])c1
  0, 1, -5.9, 4, ., i, 11, 24, 1.3, 2
COc1ccc(OCc2nnc(SCC(=O)O)n2N)cc1
  30, 31, ., ., 0.0, ., ., -1, ., -2
CCOc1ccc(NC(=O)CSc2ncnc3c2sc2ccccc23)cc1
  29, -3, ., ., 1.5, ., ., -1, ., 2
CC(=O)c1cc(NC(=O)c2ccccc2)c(=O)oc1/C=C/N(C)C
  -4, 45, ., ., 5.7, ., ., -3, ., -5
C=CCn1c(SCC(=O)NC(=O)Cc2ccccc2)nc2ccccc2c1=O
  ., -3, 0.3, 2, ., i, 1, ., -0.7, 0
O=C(COC(=O)CNC(=O)c1ccc(Cl)cc1Cl)NCC1CCCO1 (centres undefined)
  3, -4, -1.7, 10, -0.5, i, 10, -19, 0.3, 3
Cc1nn(CC(=O)Nc2ccc3c(c2)oc2ccccc23)c(=O)c2ccccc12
  -17, -5, ., ., 0.1, ., ., 23, ., -2
COc1ccccc1N1CCN(C(=O)CN(Cc2ccc(Cl)cc2)S(C)(=O)=O)CC1
  9, 70, -54, -5, -0.1, i, -10, -7, 10, .
COCCn1c(=S)[nH]c2cc(C(=O)N3CCN(c4cccc(Cl)c4)CC3)ccc2c1=O
  4, 1, 1.2, -13, 0.7, i, -20, 10, 0.5, 10
Cc1cc(C(C)(C)CC(C)(C)C)ccc1OCCOCC[N+](C)(C)Cc1ccccc1
  ., -4, 22, ., ., i, ., ., ., 100*
CCc1ccc2n(-c3ccc(OC)cc3)c([S-])c(C(=O)Nc3cc(C)cc(C)c3)[n+]2c1
  -5, ., -3.6, 10, -0.4, i, 1, 4, 3.4, 25
CCc1ccc(-c2nc(C)c(CCO)c(=O)[nH]2)cc1
  -1, 1, -0.7, 14, 2.4, i, 9, 3, 3.8, -1
COc1ccccc1-n1c(CCC(=O)O)ccc1-c1ccccc1
  -3, 90*, 1.2, 10, 2.7, i, 3, -2, 2.2, .

Additional compounds.
Order of values – Calb FLC, ALR H2O2 inh, AF4-AF9 inh, rRNA inh HTS, RanGTP-Impb inh, FGF22 binding, rRNA inh HTS OD600, T cruzi inh, rRNA inh HTS RFP, Beta cell apopt
COc1ccccc1Nc1nnc(C)c(=O)[nH]1
  -8, -1, ., ., -0.5, ., ., -12, ., 1
Cn1c(=O)[nH]c(=O)c2c1nc(N1CCN(C(c3ccccc3)c3ccccc3)CC1)n2CCO
  1, -6, -1.1, 9, 2.6, i, 10, 2, 0.2, 100*
Cc1cccc(NC(=S)N2CCCCCC2)c1
  -12, -14, ., ., 3.2, ., ., -9, ., -2
CCCN(CCC)S(=O)(=O)c1ccc(C(=O)Nc2nnc(COC)o2)cc1
  -11, 54, -3.4, -2, -3.7, i, -3, -23, -2.5, 5
CN(C)c1ccc(/C=C(\C#N)c2ccccn2)cc1
  -3, 17, ., ., 0.2, ., ., 20, ., 25
OC(CNCCc1ccc(C(F)(F)F)cc1)COC(c1ccccc1)c1ccccc1 (centres undefined)
  4, -6, 2.9, -68, -0.9, i, -80, 46, -23, 23
O=C(CCC(=O)c1cccs1)NCc1ccc(Cl)cc1
  1, -14, ., ., 2.0, ., ., 0, ., -10
CC(=O)C1=C(O)C(=O)N(c2ccc(O)cc2)C1c1ccc(C)cc1 (centres undefined)
  -7, 99*, -0.8, 3, -0.4, i, 8, -3, -0.5, -5
CC1=CC2=NC(=O)CC(C)(C(=O)N(CC(=O)NC3CCCC3)c3cc(C)cc(C)c3)N2C=C1 (centres undefined)
  2, -3, -2.5, 25, 0.6, i, 25, -21, 1.9, 4

Not all compounds are listed (hit frequency here may not be typical).
